Screens: PubChem BioAssay, National Center for Advancing Translational Sciences (NCATS)
Methyltransferases: Primary Screen for Target Class Profiling of Small Molecule Inhibitors of Methyltransferases; purified enzyme, MTase-Glo SAH luminescence; active compounds read low; calls only at 40 µM; 25,000 tested, 3.9% active; AID 1745853, 2022; active = -50% or lower on at least one of six enzymes; inconclusive = the cases between; inactive = as a rule above -30% on all six;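 further: enzymes were COMT GAMT GNMT HNMT NNMT and PNMT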
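Each enzyme was reacted with SAM and its substrate, with compounds tested once at 40 uM; SAH formed was read by MTase-Glo luminescence.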
Calls only; i = inactive; ? = inconclusive; + = active, no number. On the % scale 0 is the no-effect control and ±100 the full control effect.

Preview, six compounds:
SMILES | Methyltransferases
CN(C)CC#CCCC(=O)C(O)(c1ccccc1)C1CCC1 (stereo unspecified) | i
COc1cc2ncnc(Nc3cccc(O)c3)c2cc1OC | i
N[C@@H](CC(=O)Nc1ccc(Oc2cc(F)c(F)cc2Br)cc1)C(=O)O | i
Cn1c(=O)cc(N2CCCC(N)C2)n(Cc2ccccc2C#N)c1=O (stereo unspecified) | ?
NC(=O)c1cn(Cc2c(F)cccc2F)nn1 | i
CC(C)c1cc(CNc2nc(Nc3cc(C4CC4)[nH]n3)cc(N3CCN(C)CC3)n2)on1 | +

The list itself (from the top)
SMILES | Methyltransferases
CN(C)CC#CCCC(=O)C(O)(c1ccccc1)C1CCC1 (stereo unspecified) | i
COc1cc2ncnc(Nc3cccc(O)c3)c2cc1OC | i
N[C@@H](CC(=O)Nc1ccc(Oc2cc(F)c(F)cc2Br)cc1)C(=O)O | i
Cn1c(=O)cc(N2CCCC(N)C2)n(Cc2ccccc2C#N)c1=O (stereo unspecified) | ?
NC(=O)c1cn(Cc2c(F)cccc2F)nn1 | i
CC(C)c1cc(CNc2nc(Nc3cc(C4CC4)[nH]n3)cc(N3CCN(C)CC3)n2)on1 | +
COc1ccc([C@@H]2N[C@H](C(=O)O)Cc3c2[nH]c2ccccc32)cc1CN1CCN(c2ccccc2F)CC1 | i
CN1CCN(C(c2ccccc2)c2ccccc2)CC1 | i
N#Cc1ccc(C(=O)N2CCC3(CC2)N=C(N)c2c(F)ccc(F)c2N3)cn1 | i
COc1c(Cl)cc2c([nH]c3cnccc32)c1NC(=O)c1cccnc1C | i
Cn1cc(-c2ccc3c(c2)CCN3C(=O)Cc2cccc(C(F)(F)F)c2)c2c(N)ncnc21 | i
Nc1nc(OCc2cc(Br)cs2)c2[nH]cnc2n1 | ?

As a working copy, five of the compounds above:
SMILES | Methyltransferases
CN1CCN(C(c2ccccc2)c2ccccc2)CC1 | i
N#Cc1ccc(C(=O)N2CCC3(CC2)N=C(N)c2c(F)ccc(F)c2N3)cn1 | i
COc1c(Cl)cc2c([nH]c3cnccc32)c1NC(=O)c1cccnc1C | i
Cn1cc(-c2ccc3c(c2)CCN3C(=O)Cc2cccc(C(F)(F)F)c2)c2c(N)ncnc21 | i
Nc1nc(OCc2cc(Br)cs2)c2[nH]cnc2n1 | ?

Next section.
SMILES | Methyltransferases
COC(C(=O)N1Cc2[nH]nc(NC(=O)c3ccc(N4CCN(C)CC4)cc3)c2C1)c1ccccc1 (stereo unspecified) | ?
CN(C)C/C=C/C(=O)Nc1cc2c(Nc3ccc(F)c(Cl)c3)ncnc2cc1O[C@H]1CCOC1 | +
c1cc(NCCc2c[nH]c3ccccc23)cc(Nc2ccncc2)c1 | +
CCOC(=O)c1ccc(OCCN2C[C@H](O)[C@@H](O)[C@H](O)[C@H]2CO)cc1 | i
O=S(=O)(c1cccc2ccccc12)n1ccc2ccc(N3CCN4CCCC4C3)cc21 (stereo unspecified) | i
CCCCC1CCN(CCCN2C(=O)CCc3ccccc32)CC1 | i
Nc1nc2c(cnn2CCCc2ccc(O)cc2)c2nc(-c3ccco3)nn12 | i
COc1ccc(-n2nc(C(N)=O)c3c2C(=O)N(c2ccc(N4CCCCC4=O)cc2)CC3)cc1 | i
Cn1c2ccc(F)cc2c2c(C(=O)N3CCCC3)cn(-c3ccccc3)c(=O)c21 | i
NC(N)=NC(=O)c1cnn(-c2cccc3ncccc23)c1C1CC1 | +
Cc1nc(C(=O)NCC(=O)O)c(O)c2ccc(Oc3ccccc3)cc12 | ?
Cc1ccccc1C(=O)Nc1ccc(C(=O)N2CCC[C@@H](O)c3cc(Cl)ccc32)c(C)c1 | ?
C[C@@H]1CCN(C(=O)N2CCCC2)C[C@@H]1N(C)c1ncnc2[nH]ccc12 | i
O=C(O)c1ccc(S(=O)(=O)N(Cc2ccc(OC(F)(F)F)cc2)c2ncc(C(F)(F)F)cc2Cl)cc1 | i

An excerpt; count on the stated rates, not on these rows.
